A1 apoptosis 2: compounds inhibiting A1, read as caspase activation; MEF A1-2A-BIM cells, caspase-Glo luminescence, 3 h; percent of clofoctol response, DMSO zero; caspase activation, % (test concentration not listed); 24,000 tested, under 10 active; AID 2465; in the data active = caspase activation above about 5.9%;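 note: wells of about 30 µL received 50 nL stock; the first replicate is given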
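system = A1-2A-BIM-expressing MEF cells | quantity = 2500 MEF cells/well | dosing = 50 nL compound per well, pinned | schedule = overnight cell settling, then 3 h compound exposure, 37 °C | signal = luminescence from DEVD-luciferin Caspase-Glo reagent, 1:1 in 50 mM HEPES, 1 h RT | read-out = Caspase-3/7 activation, seen as rise in luminescence signal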
* marks the source's active call; other numbers are inactive results. Some of the compounds tested; the hit share may differ from the screen's.

SMILES	A1 apoptosis 2
CC(C)NC(=O)N(C)C[C@@H]1Oc2ccc(NC(=O)CCCCCC(=O)Nc3ccccc3N)cc2CC(=O)N([C@H](C)CO)C[C@H]1C	0.8
O=C(CCCCC(=O)N/N=C/c1ccc(CO)o1)NO	-0.1
Cc1cc(C(=O)Nc2cccc3c2O[C@@H](CN(C)C(=O)Nc2ccccc2)[C@H](C)CN([C@@H](C)CO)C3=O)n(C)n1	0.9
Cc1ccc(S(=O)(=O)Nc2ccc3c(c2)CC(=O)N([C@H](C)CO)C[C@@H](C)[C@H](CN(C)S(C)(=O)=O)O3)cc1	0.2
COc1ccc(CN(C)C[C@H]2Oc3c(NC(=O)Nc4ccc(OC)cc4)cccc3C(=O)N([C@@H](C)CO)C[C@H]2C)cc1	-1.2
COc1ccc(S(=O)(=O)N(C)C[C@H]2Oc3c(NC(=O)Nc4ccc(C(F)(F)F)cc4)cccc3C(=O)N([C@H](C)CO)C[C@@H]2C)cc1	-0.8
C[C@@H]1CCCCO[C@@H](CN(C)Cc2ccc(Cl)c(Cl)c2)[C@H](C)CN([C@H](C)CO)C(=O)c2cc(NC(=O)Nc3ccc(F)cc3)ccc2O1	-0.5
C[C@H](CO)N1C[C@H](C)[C@@H](CN(C)Cc2ccc(Oc3ccccc3)cc2)Oc2ccc(NC(=O)c3ccncc3)cc2CC1=O	-0.6
C[C@H](CO)N1C[C@H](C)[C@H](CN(C)Cc2ccncc2)Oc2ncc(-c3cccc(C(F)(F)F)c3)cc2C1=O	-0.4
COc1ccc(S(=O)(=O)Nc2ccc3c(c2)C(=O)N([C@H](C)CO)C[C@H](C)[C@@H](CN(C)C(=O)NC(C)C)OCCCC[C@@H](C)O3)cc1	1.9
C[C@@H]1CCCCO[C@@H](CN(C)S(C)(=O)=O)[C@H](C)CN([C@H](C)CO)C(=O)c2cc(NC(=O)NC3CCCCC3)ccc2O1	-0.1
Cc1noc(C)c1NC(=O)Nc1ccc2c(c1)C(=O)N([C@H](C)CO)C[C@H](C)[C@H](CN(C)C)OCCCC[C@@H](C)O2	-1.0
COc1ccc(NC(=O)N(C)C[C@H]2OCCCC[C@@H](C)Oc3ccc(NS(=O)(=O)c4ccccc4)cc3C(=O)N([C@@H](C)CO)C[C@@H]2C)cc1	-0.6
COc1ccc(CN(C)C[C@@H]2Oc3ccc(NC(=O)Nc4ccc(F)cc4)cc3C(=O)N([C@@H](C)CO)C[C@H]2C)cc1	0.6
C[C@@H]1CCCCO[C@H](CN(C)C(=O)Nc2ccccc2)[C@@H](C)CN([C@H](C)CO)C(=O)c2cc(NC(=O)NC3CCCCC3)ccc2O1	1.1
COc1ccc(NC(=O)Nc2ccc3c(c2)C(=O)N([C@H](C)CO)C[C@H](C)[C@H](CN(C)S(=O)(=O)c2ccc(OC)cc2)O3)cc1	1.5
C[C@H](CO)N1C[C@H](C)[C@H](CN(C)C)Oc2ncc(-c3ccccc3)cc2C1=O	-1.2
COc1cccc(-c2cnc3c(c2)C(=O)N([C@H](C)CO)C[C@H](C)[C@H](CN(C)Cc2ccncc2)O3)c1	0.2
COc1ccccc1CN1C(=O)c2ccccc2[C@](Cc2ccccc2I)(C(=O)NCC(C)C)[C@@H]1c1ccc(CO)cc1	-0.7
Cc1noc(C)c1S(=O)(=O)Nc1ccc2c(c1)CC(=O)N([C@@H](C)CO)C[C@@H](C)[C@@H](CN(C)Cc1ccc(C(F)(F)F)cc1)O2	-1.2
C[C@H](CO)N1C[C@H](C)[C@H](CN(C)Cc2ccc(C(=O)Nc3ccccc3N)cc2)Oc2c(NS(=O)(=O)c3ccccc3)cccc2C1=O	-0.2
COc1ccc(NC(=O)Nc2ccc3c(c2)CC(=O)N([C@@H](C)CO)C[C@H](C)[C@@H](CN(C)S(=O)(=O)c2ccc(OC)cc2)O3)cc1	-0.5
COc1ccc(S(=O)(=O)N(C)C[C@@H]2Oc3c(NS(=O)(=O)c4ccccc4)cccc3C(=O)N([C@@H](C)CO)C[C@@H]2C)cc1	0.5
COc1ccc(NC(=O)N(C)C[C@H]2Oc3ccc(NC(=O)Cc4ccccc4)cc3CC(=O)N([C@H](C)CO)C[C@H]2C)cc1	0.7
COc1ccc(CN(C)C[C@H]2OCCCC[C@H](C)Oc3ccc(NC(=O)Nc4c(C)noc4C)cc3C(=O)N([C@@H](C)CO)C[C@@H]2C)cc1	-0.2
SMILES	A1 apoptosis 2
COc1ccc(S(=O)(=O)N(C)C[C@H]2OCCCC[C@@H](C)Oc3ccc(NC(=O)NC4CCCCC4)cc3C(=O)N([C@H](C)CO)C[C@@H]2C)cc1	0.1
C[C@H](CO)N1C[C@H](C)[C@@H](CN(C)C(=O)NC2CCCCC2)OCCCC[C@H](C)Oc2ccc(NS(=O)(=O)c3cn(C)cn3)cc2C1=O	0.9
Cc1ccc(S(=O)(=O)N(C)C[C@H]2OCCCC[C@@H](C)Oc3ccc(N(C)C)cc3C(=O)N([C@H](C)CO)C[C@@H]2C)cc1	-0.2
C[C@H]1CCCCO[C@@H](CN(C)C(=O)CCCN(C)C)[C@@H](C)CN([C@@H](C)CO)C(=O)c2cc(NC(=O)CCC(F)(F)F)ccc2O1	0.3
C[C@@H]1CCCCO[C@H](CN(C)C(=O)Nc2ccc(F)cc2)[C@H](C)CN([C@@H](C)CO)C(=O)c2cc(NC(=O)Cc3ccccc3)ccc2O1	-1.1
C[C@@H]1CN([C@H](C)CO)C(=O)c2cc(NC(=O)C3CCCCC3)ccc2O[C@@H](C)CCCCO[C@@H]1CN(C)S(=O)(=O)c1ccc(Cl)cc1	1.9
COc1ccc(S(=O)(=O)N(C)C[C@@H]2OCCCC[C@H](C)Oc3ccc(NC(=O)Nc4c(C)noc4C)cc3C(=O)N([C@@H](C)CO)C[C@H]2C)cc1	-0.4
C[C@@H]1CN([C@H](C)CO)C(=O)c2cc(NC(=O)Nc3cccc4ccccc34)ccc2O[C@H]1CN(C)Cc1ccc(C(=O)Nc2ccccc2N)cc1	0.3
Cc1noc(C)c1S(=O)(=O)Nc1ccc2c(c1)C(=O)N([C@@H](C)CO)C[C@H](C)[C@@H](CN(C)Cc1ccc(Cl)c(Cl)c1)OCCCC[C@H](C)O2	0.9
C[C@@H]1CCCCO[C@H](CN(C)Cc2ccc3c(c2)OCO3)[C@H](C)CN([C@@H](C)CO)C(=O)c2cc(NS(C)(=O)=O)ccc2O1	0.2
CNC[C@H]1Oc2ccc(NS(=O)(=O)c3cccs3)cc2CC(=O)N([C@H](C)CO)C[C@@H]1C	0.0
COc1ccc(NC(=O)Nc2ccc3c(c2)CC(=O)N([C@H](C)CO)C[C@H](C)[C@H](CN(C)S(=O)(=O)c2ccc(F)cc2)O3)cc1	0.1
Cc1ccc(S(=O)(=O)Nc2ccc3c(c2)CC(=O)N([C@H](C)CO)C[C@H](C)[C@@H](CN(C)C(=O)NC2CCCCC2)O3)cc1	-0.3
COc1ccccc1NC(=O)N(C)C[C@H]1OCc2cn(nn2)CCCC(=O)N([C@H](C)CO)C[C@@H]1C	-0.6
Cc1noc(C)c1S(=O)(=O)N(C)C[C@H]1Oc2c(NC(=O)c3nc4ccccc4s3)cccc2C(=O)N([C@@H](C)CO)C[C@H]1C	1.1
CCO[C@@H]1OC(C(=O)N2CCN(Cc3ccc4c(c3)OCO4)CC2)=C[C@H](c2csc3ccccc23)[C@H]1CCCO	1.0
Cc1ccccc1S(=O)(=O)N(C)C[C@@H]1OCc2cn(nn2)CCCC(=O)N([C@@H](C)CO)C[C@@H]1C	1.1
CNC[C@@H]1Oc2ccc(NC(=O)CCN3CCOCC3)cc2CC(=O)N([C@@H](C)CO)C[C@@H]1C	-0.8
COc1ccc(S(=O)(=O)Nc2ccc3c(c2)C(=O)N([C@@H](C)CO)C[C@H](C)[C@@H](CN(C)C(=O)Nc2ccc(C(F)(F)F)cc2)OCCCC[C@H](C)O3)cc1	-1.1
CNC[C@H]1Oc2ccc(NC(=O)CCCN(C)C)cc2C(=O)N([C@@H](C)CO)C[C@@H]1C	0.2
C[C@@H]1CN([C@H](C)CO)C(=O)c2cc(NC(=O)Cc3ccccc3)ccc2O[C@@H]1CN(C)Cc1ccc(C(=O)O)cc1	0.1
Cc1ccc(S(=O)(=O)N(C)C[C@@H]2Oc3c(NS(=O)(=O)c4cccs4)cccc3C(=O)N([C@H](C)CO)C[C@@H]2C)cc1	1.0
Cc1ccc(S(=O)(=O)N(C)C[C@H]2Oc3c(NC(=O)C4CCOCC4)cccc3C(=O)N([C@@H](C)CO)C[C@@H]2C)cc1	-0.8
Cc1noc(C)c1NC(=O)N(C)C[C@H]1Oc2ccc(NC(=O)CCCN(C)C)cc2C(=O)N([C@@H](C)CO)C[C@@H]1C	0.6
C[C@@H]1CCCCO[C@@H](CN(C)C(=O)CCC(F)(F)F)[C@@H](C)CN([C@H](C)CO)C(=O)c2cc(NC(=O)CCC(F)(F)F)ccc2O1	-0.9
SMILES	A1 apoptosis 2
C[C@@H]1CN([C@@H](C)CO)C(=O)c2cccc(NC(=O)NC3CCCCC3)c2O[C@H]1CN(C)Cc1ccncc1	1.8
Cc1noc(C)c1NC(=O)Nc1ccc2c(c1)C(=O)N([C@@H](C)CO)C[C@H](C)[C@@H](CN(C)CC1CCCCC1)O2	-0.6
[N-]=[N+]=NCc1ccccc1C[C@]1(C(=O)N2CCOCC2)COC(c2ccc(OCCCO)cc2)=N1	-1.1
CC(C)NC(=O)Nc1ccc2c(c1)C(=O)N([C@H](C)CO)C[C@H](C)[C@@H](CN(C)C)OCCCC[C@H](C)O2	-1.3
C[C@@H]1CN([C@@H](C)CO)C(=O)c2cc(NC(=O)Cc3ccccc3)ccc2O[C@@H]1CN(C)Cc1ccc2c(c1)OCO2	-0.1
C[C@H]1CN([C@@H](C)CO)C(=O)Cc2cc(NC(=O)Nc3ccccc3)ccc2O[C@H]1CN(C)S(=O)(=O)c1ccccc1	-0.3
C[C@@H]1CCCCO[C@H](CN(C)S(=O)(=O)c2cccs2)[C@H](C)CN([C@H](C)CO)C(=O)c2cc(NS(C)(=O)=O)ccc2O1	-0.1
Cc1ccc(S(=O)(=O)Nc2ccc3c(c2)C(=O)N([C@@H](C)CO)C[C@@H](C)[C@@H](CN(C)S(=O)(=O)c2ccc(F)cc2)O3)cc1	0.3
C[C@H](CO)N1C[C@H](C)[C@@H](CN(C)C)OCCCC[C@H](C)Oc2ccc(N(C)C)cc2C1=O	-0.3
C[C@@H]1CCCCO[C@@H](CN(C)C(=O)c2ccncc2)[C@@H](C)CN([C@H](C)CO)C(=O)c2cc(NC(=O)CCC(F)(F)F)ccc2O1	-0.6
C[C@@H]1CN([C@@H](C)CO)C(=O)Cc2cc(NS(=O)(=O)c3cccs3)ccc2O[C@H]1CN(C)C(=O)Nc1cccc2ccccc12	-0.2
Cc1ccc(S(=O)(=O)Nc2ccc3c(c2)C(=O)N([C@H](C)CO)C[C@@H](C)[C@@H](CN(C)Cc2ccc4c(c2)OCO4)OCCCC[C@@H](C)O3)cc1	-0.3
C[C@@H]1CCCCO[C@@H](CN(C)C)[C@@H](C)CN([C@H](C)CO)C(=O)c2cc(NC(=O)c3ccncc3)ccc2O1	1.0
COc1ccc(CN(C)C[C@@H]2OCCCC[C@H](C)Oc3ccc(NC(=O)Nc4cccc5ccccc45)cc3C(=O)N([C@@H](C)CO)C[C@@H]2C)cc1	-0.4
C[C@H]1CN([C@@H](C)CO)C(=O)c2cc(NC(=O)Nc3ccc4c(c3)OCO4)ccc2O[C@H]1CN(C)C(=O)Nc1ccccc1	-1.6
C[C@H]1CN([C@@H](C)CO)C(=O)Cc2cc(NC(=O)Nc3ccc(C(F)(F)F)cc3)ccc2O[C@@H]1CN(C)S(=O)(=O)c1ccc(F)cc1	0.7
COc1ccc(S(=O)(=O)N(C)C[C@@H]2Oc3ccc(NC(=O)Cc4ccccc4)cc3C(=O)N([C@@H](C)CO)C[C@@H]2C)cc1	2.4
CN1C(=O)N[C@@H]2c3ccccc3O[C@@]1(C)[C@@H]2CO[Si](C)(C)C(C)(C)C	-1.2
C[C@H](CO)N1C[C@H](C)[C@H](CN(C)S(=O)(=O)c2ccc(F)cc2)Oc2ccc(NC(=O)NC3CCCCC3)cc2CC1=O	-0.1
C[C@H](CO)N1C[C@H](C)[C@@H](CN(C)C)OCc2cnnn2CCCC1=O	-0.4

Structural class: the compounds so far containing two or more sulfur atoms (8)
SMILES	A1 apoptosis 2
Cc1ccc(S(=O)(=O)Nc2ccc3c(c2)CC(=O)N([C@H](C)CO)C[C@@H](C)[C@H](CN(C)S(C)(=O)=O)O3)cc1	0.2
COc1ccc(S(=O)(=O)N(C)C[C@@H]2Oc3c(NS(=O)(=O)c4ccccc4)cccc3C(=O)N([C@@H](C)CO)C[C@@H]2C)cc1	0.5
CNC[C@H]1Oc2ccc(NS(=O)(=O)c3cccs3)cc2CC(=O)N([C@H](C)CO)C[C@@H]1C	0.0
Cc1noc(C)c1S(=O)(=O)N(C)C[C@H]1Oc2c(NC(=O)c3nc4ccccc4s3)cccc2C(=O)N([C@@H](C)CO)C[C@H]1C	1.1
Cc1ccc(S(=O)(=O)N(C)C[C@@H]2Oc3c(NS(=O)(=O)c4cccs4)cccc3C(=O)N([C@H](C)CO)C[C@@H]2C)cc1	1.0
C[C@@H]1CCCCO[C@H](CN(C)S(=O)(=O)c2cccs2)[C@H](C)CN([C@H](C)CO)C(=O)c2cc(NS(C)(=O)=O)ccc2O1	-0.1
Cc1ccc(S(=O)(=O)Nc2ccc3c(c2)C(=O)N([C@@H](C)CO)C[C@@H](C)[C@@H](CN(C)S(=O)(=O)c2ccc(F)cc2)O3)cc1	0.3
C[C@@H]1CN([C@@H](C)CO)C(=O)Cc2cc(NS(=O)(=O)c3cccs3)ccc2O[C@H]1CN(C)C(=O)Nc1cccc2ccccc12	-0.2
